From PubChem
Vaccinia mCherry = inhibitors of vaccinia virus infection (mCherry reporter signal); Vaccinia virus mCherry reporter infection, fluorescence; about a quarter of the inactives have no number; Potency, µM (titrated, usually from 36.5 µM), for inactives: at the highest dose activity change, negative = inhibition, usual class: inhibitors; 310,000 tested, 0.63% active; active = well fitted inhibition curve with a large enough effect; inconclusive = small, poorly fitted or top-dose-only effect; inactive = no such curve, though single readings can be large or run the other way; tested in A549 cells; note: nearly all actives have a fitted effect of over 35% in size; inactives centre near -10
VACV Venus inh = inhibitors of vaccinia virus (Venus reporter) | AID 720580 | Potency, µM (series often up to 36.5 µM), for inactives: top-dose activity change, negative = inhibition, hits mostly inhibitors | 330,000 tested, 0.46% active | Vaccinia virus Venus reporter expression, fluorescence; active means well fitted inhibition curve with a large enough effect; inconclusive means small, poorly fitted or top-dose-only effect; inactive means no such curve, though single readings can be large or run the other way; tested in A549 cells; note: nearly all actives have a fitted effect of over 30% in size; inactives centre near -10
Active calls of the source: *; i = inactive; ? = inconclusive; · = no result given; [ ] = remark or other dose. % is set by controls: 0 for no effect and ±100 for the full control effect; potency is the fitted concentration of half-maximal effect.

Molecule	Vaccinia mCherry	VACV Venus inh
COc1cccc(-c2cc(C(F)(F)F)nc(NCCc3ccccc3)n2)c1	1%	4%
Cc1cccc(C(=O)NCC(=O)Nc2ccc(S(=O)(=O)Nc3nc(C)cc(C)n3)cc2)c1	i	-3%
O=C1CC2CCCN2C=C1I (centres undefined)	i	1%
COC(=O)c1ccc(Nc2nnc(-c3ccc(C)c(S(=O)(=O)N4CCN(C)CC4)c3)c3ccccc23)cc1	-27%	-22%
O=C(Oc1ccc(C(=S)N2CCOCC2)cc1)c1ccc(Br)cc1	-22%	-13%
COc1ccc(-n2c(=O)c3sc4ccccc4c3n(CC(=O)Nc3ccccc3F)c2=O)cc1	-19%	-11%
COc1cccc(N(CC(=O)NC2CCCCC2)C(=O)Cn2nnc(-c3ccc(C)o3)n2)c1	-7%	-15%
O=C(NCC(c1ccco1)N1CCc2ccccc2C1)c1c(F)cccc1F (centres undefined)	i	-11%
COc1cccc(N2CCN(C(=O)C3CCN(S(=O)(=O)c4c(C)noc4C)CC3)CC2)c1	-9%	-2%
CCC(=O)n1nc(-c2cccnc2)nc1NCc1ccccc1	i	-8%
Cc1ccc(NC(=S)NN2CCN(C)CC2)cc1	i	-15%
CC1=NNC(=O)C1CCC(=O)N/N=C(\C)c1ccc(Cl)cc1 (centres undefined)	i	-2%
Cc1cc(C)nc(NC(=O)c2cc(-c3ccc4c(c3)OCO4)nc3ccccc23)c1	-9%	-4%
Cc1cc(C)n2c(Br)c(CSc3nc4ccccc4s3)nc2n1	0%	-8%
COc1ccc(C(C2C(=O)CC(C)(C)CC2=O)C2C(=O)CC(C)(C)CC2=O)cc1COCC(F)(F)F	-9%	-3%
CCCCOc1ccc(C(=O)Nc2ccc3c(c2)C(=O)NC3=O)cc1	-11%	-15%
CCN(CC)c1ccc2c(C)c(CO)c(=O)oc2c1	-22%	-28%
C[C@@H]1CCCCCCCCC(=O)OCCN(C(=O)OC(C)(C)C)[C@H](C)CCCCCCCCC(=O)OCCN1C(=O)OC(C)(C)C	-14%	2%
COc1ccc(-c2cc(C(=O)Nc3ccccc3O)c3ccccc3n2)cc1	-20%	-13%
COc1ccc(CC(=O)Nc2sc3c(c2C(N)=O)CCCC3)cc1OC	-2%	-20%
O=C(NCCS(=O)(=O)N1CCN(c2ccccc2F)CC1)c1ccc(Br)o1	i[7.34 µM]	-9%[7.34 µM]
CCC(=O)N1CCc2cc(Br)cc(S(=O)(=O)CCC(=O)Nc3ccc(C)c(F)c3)c21	-13%	-11%
C[C@@H]1CN([C@@H](C)CO)C(=O)Cc2cc(NS(=O)(=O)c3ccccc3)ccc2O[C@H]1CN(C)Cc1ccncc1	-12%	-4%
Cn1c(N/N=C2\CCCc3ccccc32)nc2c1c(=O)n(Cc1ccccc1)c(=O)n2C	i	-5%
Cc1cc(C)cc(NC(=O)c2sc3nc4n(c(=O)c3c2C)N=C(c2ccc(F)cc2)CS4)c1	-8%	-6%
CCCNS(=O)(=O)c1ccc2nc(NC(=O)c3ccc(F)cc3)sc2c1	-1%	-18%
Cn1c(CC(=O)c2ccc(Br)cc2)[n+](C)c2ccccc21	-9%	-8%
O=[n+]1cc(-c2ccc(Br)cc2)n([O-])c2c1CCC2	i	0%
CCCNC(=O)OCCC12CC3CC(CC(C3)C1)C2	-13%	-8%
CCN(Cc1ccccc1)C(=O)Cc1c[nH]c2ccccc12	-8%	-9%
COc1ccc(OC)c(CNc2ncc(-c3ccc(Cl)cc3)n2C)c1	-7%	2%
COCc1cc(C)c(C#N)c(=S)[nH]1	·	-1%
COc1ncc(-c2c(-c3ccccc3OC)sc3ccccc23)cn1	14%	-1%
CCOC(=O)CCCNC(=O)COC(=O)c1cccc(F)c1	-21%	-12%
O=C(OCCCN=C1NS(=O)(=O)c2ccccc21)C1CC(=O)N(c2ccc(Cl)cc2)C1 (centres undefined)	-8%	1%
COCCCNC(=O)C[C@H]1C[C@H](C(=O)N2CCOCC2)[C@@]2(C)c3[nH]c4cc(-c5ccco5)ccc4c3CCN2C1=O	i	-5%
CC(C)(C)C1CCc2c(sc3nc(-c4cc5cc(Br)ccc5oc4=O)[nH]c(=O)c23)C1 (centres undefined)	-13%	0%
Cc1nc2c(c(=O)c3ccccc3n2C)c(=O)n1-c1ccccc1	-4%	-9%
COc1ccc(-c2noc(N3CCN(c4cccc(C)c4C)CC3)n2)cc1OC	-15%	-12%
CCCCC1(C)OC(=O)C(=Cc2ccc(-c3ccc(Cl)c(C(=O)O)c3)o2)C(=O)O1 (centres undefined)	i	1%
CC1(C)CC(=O)C(C(=O)C2CCN(S(=O)(=O)c3ccccc3)CC2)C(=O)C1	i	-19%
Cc1cccc(NC(=O)CSc2nnc(-c3ccccc3Br)o2)c1C	·	-18%
CCCCn1nnnc1C(c1ccccc1)N1CCC2(CC1)C(=O)NCN2c1ccccc1 (centres undefined)	33%[activator]	-10%
c1ccc(N/N=C2\CCCc3ccccc32)nc1	-25%	-27%
CC(CNC(=O)CN1C(=O)c2cccnc2Oc2ccc(Cl)cc21)c1ccccc1 (centres undefined)	-1%[7.34 µM]	12%[7.34 µM]
C=C1C2C[C@H](O)C(C)(C)[C@@]2(O)[C@H](O)C[C@]23C[C@@](C)(O)[C@H](CC[C@H]12)[C@H]3OC(C)=O (some centres undefined)	i	-1%
CCOC(=O)c1c(C)oc2ccc(OCC(=O)N(CC)CC)cc12	-17%	-10%
O=c1cc(CN2CCN(c3ccc(Cl)c(Cl)c3)CC2)c2c(ccc3ccccc32)o1	20%	1%
Oc1ccc(/C=N/N=C/c2ccc(O)c(O)c2)cc1O	?	-15%
Cc1ccc(NC(=O)c2cc(NC(=O)c3ccco3)ccc2N2CCCCC2)cc1	-19%	-6%
O=C(Cn1cccc1C(=O)c1ccccc1)NCCCc1ccccc1	-22%	-7%
NC(=O)c1ccc(NC(=O)CCNC(=O)c2ccco2)cc1	-16%	-12%
CC/C(=C/c1sc2ccc(C)cc2[n+]1CCO)SC	i	-9%
O=C(Cn1c(=O)n(Cc2ccc(C(=O)NCc3ccc4c(c3)OCO4)cc2)c(=O)c2ccccc21)Nc1ccc(F)cc1F	i	-18%
CCOC(=O)c1ccccc1NC(=O)CN(c1ccccc1)S(=O)(=O)c1ccc(OCC)cc1	-7%	-1%
CCOC(=O)CN1CC23C=CC(O2)C(C(=O)Nc2ccc(F)c(C)c2)C3C1=O (centres undefined)	-18%	-3%

Later entries:
Molecule	Vaccinia mCherry	VACV Venus inh
Clc1cc(Cl)cc(CSc2nnc(-c3sccc3-n3cccc3)o2)c1	·	5%
N#Cc1ccccc1COC(=O)c1ccc(Br)o1	i	-24%
CCCS(=O)(=O)N1CCCC(C(=O)NC2CCCC(C)C2C)C1 (centres undefined)	·	-12%
CC1(C)C2CCC1(CS(=O)(=O)Nc1ccc(S(=O)(=O)N3CCCCC3)cc1)C(=O)C2 (centres undefined)	i	-17%
CCOC(=O)c1cc2c(=O)n3ccccc3nc2n(CC2CCCO2)c1=NC(=O)c1ccc(C(C)(C)C)cc1 (centres undefined)	-4%	6%
CC1(C)CC(NC(=O)COc2ccc(Cl)cc2Cl)CC(C)(C)N1	-3%	3%
C[N+]1(CC(COCc2ccccc2)OC(=O)Cc2ccccc2)CCOCC1 (centres undefined)	-10%	-16%
CCOc1ccc(NCc2cccn2-c2nnc(N3CCC(C(=O)NCc4ccccc4Cl)CC3)s2)cc1	-28%	?
COc1ccc(CN(C)C(=S)Nc2ccc(OC(F)F)cc2)cc1	i	1%
Cc1ccc(-n2ncc(C(=O)NCCN3CCc4ccccc4C3)c2C2CCNCC2)cc1C	-16%	-9%
O=[N+]([O-])/C(C(=C(Cl)Cl)N1CCN(Cc2ccccc2)CC1)=C1\NCCN1Cc1ccc(Cl)nc1	10µM*	?
O=C(NCc1ccccc1)c1ccc2c(c1)CCN2S(=O)(=O)c1ccc(Cl)cc1	-17%	-8%
O=C(N/N=C/C(Cl)=C/c1ccc([N+](=O)[O-])cc1)C(=O)Nc1ccc(C(=O)O)cc1	8%	-1%
Cc1ccc(Cl)cc1NC(=O)CCn1cccc1	-26%	-9%
O=C(COC(=O)c1cc(S(=O)(=O)N2CCOCC2)c(Cl)cc1Cl)NC1CC1	-19%	-14%
CC(NC(=O)/C(C#N)=C/c1cccs1)c1ccccc1 (centres undefined)	i	-23%
COc1cc(C(=O)OCCCc2cc3ccccc3c(=O)o2)cc(OC)c1OC	i	-9%
O=C(Nc1ccc(N2CCOCC2)cc1)c1cc2c(s1)CCCCC2	-23%	-20%
O=C(Nc1ccc(Oc2nnc(-c3ccccc3)c3ccccc23)cc1)c1ccccc1	-6%	-8%
CC(O)/C=C/C1OC(=O)CC1Nc1ccc(C=O)cc1 (centres undefined)	-5%	0%
CCCn1c2ccccc2c2cnn(CC(=O)NCC3CCN(Cc4ccc(F)cc4)CC3)c(=O)c21	-17%	-20%
CN(C)CCN(Cc1cc2cc3c(cc2[nH]c1=O)OCO3)C(=S)NCc1ccco1	-21%	-7%
CN(C)CCCOC(=O)COc1ccc(C(C)(C)C)cc1	-8%	-11%
CC(C)C(NC(=O)c1ccc(C(C)(C)C)cc1)C(=O)Nc1cccc(S(N)(=O)=O)c1 (centres undefined)	i	-9%
FC(F)(F)c1nnc(-c2ccccc2)nc1N1CCCC1	i	-15%
O=C(NC(=S)NCCOCc1ccc(Cl)cc1)c1cccnc1	-14%	-7%
O=c1[nH]c(=S)[nH]c2c1[C@H](C1CC1)O[C@H](CCc1ccccc1)C2	i	2%
CCOC1=C2CN(S(=O)(=O)c3ccc(C)cc3)[C@@H](c3cccc4ccccc34)C[C@H]2[C@H]2C(=O)N(c3ccccc3)C(=O)[C@H]2C1	i	-5%
O=C(OCc1ccccc1)/C(=C/c1cccc(Br)c1)NC(=O)c1ccco1	-1%	-6%
C=C(NC(=O)C(=C)NC(=O)c1csc(C2=NC3c4csc(n4)C4NC(=O)c5csc(n5)C(C(C)(O)C(C)O)NC(=O)C5CSC(=N5)/C(=C/C)NC(=O)C(C(C)O)NC(=O)c5csc(n5)C3(CC2)NC(=O)C(C)NC(=O)C(=C)NC(=O)C(=C)NC(=O)C(C(C)C)NC2C=Cc3c(C(C)O)cc(nc3C2O)C(=O)OC4C)n1)C(N)=O (centres undefined)	-27%	-21%
CC(C)N(C(=O)CSc1nc2ccccc2c(=O)[nH]1)C(C)C	-5%	-4%
CC1(C)Nc2cccc3cccc(c23)N1	-17%	3%
C#CCC(NC(=O)c1ccc(C#N)cc1)C(=O)NCCC (centres undefined)	-22%	1%
CCOC(=O)c1c(C)nn(Cc2cccc(Cl)c2)c1N	-2%	-16%
CCc1cccc(CC)c1NC(=O)C1CN(S(=O)(=O)c2ccccc2)CCN1S(=O)(=O)c1ccccc1 (centres undefined)	i	-14%
O=C(Cn1c(=O)oc2cc(S(=O)(=O)N3CCCCC3)ccc21)N1CCc2ccccc2C1	i	-8%
COc1ccc(-c2cccc(N3CCN(c4ccccn4)CC3)n2)cc1OC	14%	15%
Cc1cc(NC(=O)c2cc(-c3ccncc3)nc3ccccc23)ccc1Br	?	-19%
CC(C)(Oc1ccc(Cl)cc1)C(=O)Nc1cccc(-c2cn3cccnc3n2)c1	-20%	-18%
O=C(CC1C(=O)NCCN1Cc1ccc(-c2ccccc2)cc1)NCCCn1ccnc1 (centres undefined)	5%[7.34 µM]	13%[7.34 µM]
Cc1cccc(-c2noc(CCC(=O)NC3CCCC3)n2)c1	72%[activator]	-7%
O=C(c1cc(S(=O)(=O)N2CCOCC2)ccc1Cl)N1CCCCC1CO (centres undefined)	-13%	-4%
O=C(CSc1nnc(COc2ccccc2F)n1-c1ccccc1)NC1CCS(=O)(=O)C1 (centres undefined)	-4%	-7%
COCCCN1CC(=O)N2C(c3cccc(C)c3)c3[nH]c4ccccc4c3C[C@H]2C1=O (some centres undefined)	-14%	-2%
O=S1(=O)C[C@@H](N2CCN(CC3CC3)CC2)[C@H](COCc2ccccc2)N1	35%[activator]	-4%
COc1ccc(NC(=O)CC2C(=O)NCCN2C(=O)c2ccc(N(C)C)cc2)cc1 (centres undefined)	-8%	-3%
CC(C)NC(=O)c1onc(CSc2ccccn2)c1C(=O)NC(C)C	i	-4%
